# Screening data (PubChem)
# total CFTR: total CFTR protein upregulators, primary screen, cell-based, HeLa F508del-CFTR, immunofluorescence, viability (AID 1224863); HeLa F508del-CFTR, immunofluorescence total CFTR, 24 h; by the record results were divided by relative cell number; some inactives read as strong as hits; Cystic fibrosis transmembrane conductance regulator (Homo sapiens); calls, or highest fold increase where a dose series was run; 0.1% of 10,000 active; in the data nearly all actives have a first-pass fold increase above 1.5; a few of its hits are not listed in these tables;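 also: total CFTR protein by anti-CFTR immunofluorescence in fixed cells; first pass at 25 µM or 10 µg/mL by library and series up to twice that; 1 = untreated cells; first-pass hits also needed half or more of the cells alive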
# total CFTR fold 25 µM: second read-out of total CFTR, no call of its own (marks repeat the call); fold increase; measured here: primary screen single dose 25 uM; library dosed in µM
# total CFTR fold 10 ug/mL: recorded beside total CFTR, whose call it bears; fold increase; measured here: primary screen 10 ug/mL
# total CFTR viability 25 µM: recorded beside total CFTR, whose call it bears; viability, %; measured here: primary viability 25 uM; library dosed in µM;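 0% = killed and 100% = untreated cells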
# total CFTR viability 10 ug/mL: second read-out of total CFTR, no call of its own (marks repeat the call); viability, %; measured here: primary viability 10 ug/mL;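 0% = killed and 100% = untreated cells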
# Active calls of the source: *; i = inactive; . = not tested or not shown; & = joins results of further samples. Not all compounds are listed; count on the stated rates, not on these rows.
SMILES,total CFTR,total CFTR fold 10 ug/mL,total CFTR viability 10 ug/mL,others
Cc1cc(C(=O)OCC(=O)N2CC(C)OC(C)C2)c(C)o1 (stereo not drawn),i,1.1,96,
O=C1c2c(O)cccc2Cc2cccc(O)c21,i,.,.,total CFTR fold 25 µM=1.1;total CFTR viability 25 µM=93
O=C(c1ccc([N+](=O)[O-])s1)N(Cc1cccs1)Cc1cccs1,i,0.67,66,
COc1ccc(COn2nnc3ccc(S(C)(=O)=O)cc32)cc1F,i,1,92,
O=S(=O)(c1ccccc1)N(CC1CCCCO1)c1nc2ccccc2s1 (stereo not drawn),i,0.96,99,
Fc1ccc(CNc2ccc(F)c(Cl)c2)cc1F,i,0.95,76,
CCNc1nc(C)nc2sc(CC)cc12,i,0.96,84,
O=C(OCc1cn2cc(Cl)ccc2n1)c1ccc(O)cc1O,i,1.1,90,
Cc1csc(C(C#N)C(=O)Cn2nnn(-c3cccs3)c2=O)n1 (stereo not drawn),i,1,108,
CC(C)N(CCCNCc1cccc2c1OCO2)S(C)(=O)=O,i,0.92,84,
C[C@@H]1C/C=C/C=C/C=C/C=C/C(O[C@@H]2O[C@H](C)[C@@H](O)[C@H](N)[C@@H]2O)C[C@@H]2O[C@](O)(C[C@@H](O)CC3OC3/C=C/C(=O)O1)C[C@H](O)[C@H]2C(=O)O (stereo partly drawn),i,.,.,total CFTR fold 25 µM=0.92;total CFTR viability 25 µM=66
CC(C)c1nc2c3ccccc3[nH]c(=O)n2n1,i,1,93,
O=C(O)c1cc2c(cc1O)OCO2,i,1,102,
CCCSc1nnc(-c2ccccc2OCC)o1,i,0.95,84,
O=S(=O)(c1ccc(Cl)cc1F)N1CCC(CN2CCOCC2)CC1,i,0.93,102,
S=c1n(CN2CCOCC2)nnn1-c1ccc(Cl)cc1,i,1,100,
O=S(=O)(Nc1ccc(OCC(F)(F)F)cc1)c1ccc(F)cc1F,i,0.91,87,
CC1(C)O[C@@H]2CC3C4C[C@H](F)C5=CC(=O)C=CC5(C)C4C(O)CC3(C)[C@]2(C(=O)CO)O1 (stereo partly drawn),i,.,.,total CFTR fold 25 µM=1.2;total CFTR viability 25 µM=79
Cc1cnc(C(=O)Nc2sc3c(c2C(=O)OC(C)C)CCC(C)C3)cn1 (stereo not drawn),i,1.1,90,
CS(=O)(=O)N1CCCN(Cc2ccc(Br)cc2)CC1,i,0.89,83,
Cn1cccc1C(=O)NC(=O)CSC1CCCC1,i,1,82,
CN(C)CCN(Cc1ccccc1)c1ccccn1,i,.,.,total CFTR fold 25 µM=1;total CFTR viability 25 µM=92
O=C1NC2(CCCCC2)C(=O)N1CN(Cc1ccc(F)cc1)C1CCCCC1,i,1,88,
Cc1cc(CSc2nnc(-c3ccco3)n2-c2ccccc2)no1,i,1.1,90,
Cc1csc(CNC(=O)C(C)OCC(F)(F)F)n1 (stereo not drawn),i,1,94,
Nc1nnc(SCc2csc(Cc3ccc(Cl)cc3)n2)s1,i,0.91,93,
CC1CC1C(=O)N1CCc2c(sc3ncnc(N)c23)C1 (stereo not drawn),i,1,94,
OC(COc1ccc2ccccc2c1)CN1CCCC1 (stereo not drawn),i,1.2,84,
O=C1NC2(CCS(=O)(=O)c3ccc(F)cc32)C(=O)N1Cc1ccc(F)cc1 (stereo not drawn),i,0.91,101,
N=c1ccn2c(n1)O[C@H]1[C@H](O)[C@@H](CO)O[C@H]12,i,.,.,total CFTR fold 25 µM=0.99;total CFTR viability 25 µM=83
Cc1ccc(/C=C2\N=C(c3ccc(N4CCCC4=O)cc3)OC2=O)o1,i,1,96,
O=C(COc1ccc2cc(Br)ccc2c1)c1ccc(-c2ccccc2)cc1,i,1.1,101,
O=C(O)C1CCCN(C(=O)N2CCNCC2)C1 (stereo not drawn),i,1.1,103,
CS(=O)(=O)CCC(=O)Nc1nc2c(s1)CCC2,i,1.1,92,
CC1CCN(CCCNC(=O)CC2CCCC2)CC1,i,1.1,90,
O=S(=O)(Nc1cc2c(cc1Br)OCCO2)c1ccc(Br)cc1,i,1,88,
Fc1ccc(C2CN(Cn3nnn(-c4ccccc4)c3=S)CCO2)cc1 (stereo not drawn),i,1.1,97,
CC(=O)O[C@H]1C[C@@H]2CC[C@@H]3[C@H](CC[C@@]4(C)[C@H]3C[C@H]([N+]3(C)CCCCC3)[C@@H]4OC(C)=O)[C@@]2(C)C[C@@H]1N1CCCCC1,i,.,.,total CFTR fold 25 µM=1.1;total CFTR viability 25 µM=96
CC(C)N1CCN(c2ccc(OC[C@H]3CO[C@](Cn4cncn4)(c4ccc(Cl)cc4Cl)O3)cc2)CC1,i,.,.,total CFTR fold 25 µM=1.2;total CFTR viability 25 µM=91
CC(=O)[C@@]1(O)CCC2C3C[C@H](C)C4=CC(=O)C=CC4(C)[C@@]3(F)[C@@H](O)C[C@@]21C (stereo partly drawn),i,.,.,total CFTR fold 25 µM=1.2;total CFTR viability 25 µM=99
COc1ccc(OC)c(S(=O)(=O)N2CCN(S(=O)(=O)C3=Cc4ccccc4CC3)CC2)c1,i,1,84,
Cn1cc(S(=O)(=O)N(Cc2ccco2)Cc2cccs2)c(=O)n(C)c1=O,i,0.95,98,
O=C(O)CCc1nc(-c2ccccc2)c(-c2ccccc2)o1,i,.,.,total CFTR fold 25 µM=1.1;total CFTR viability 25 µM=84
CC1CCCCC12NC(=O)N(CC(=O)N1CCN(CC(=O)NC3CC3)CC1)C2=O (stereo not drawn),i,0.93,103,
Cc1ccccc1CN1CCCN(S(=O)(=O)N2CCC(C)CC2)CC1,i,0.83,94,
O=C(N1CCN(S(=O)(=O)N2CCOCC2)CC1)C12CC3CC(CC(C3)C1)C2,i,1.1,104,
COc1ccc(C2CCCN2S(=O)(=O)C2=Cc3ccccc3CC2)cc1 (stereo not drawn),i,1.2,96,
CCOC(=O)N1CCC(NS(=O)(=O)c2cc(F)ccc2C)CC1,i,0.94,86,
O=C1NC(=O)C2(CCN(C(=O)Cc3csc(-c4ccsc4)n3)CC2)N1,i,0.99,76,
Cn1nnnc1SCc1ccc(C(F)(F)F)cc1,i,1,95,
CCn1c(-c2ccccc2)nn(CN(CC(C)C)C2CCS(=O)(=O)C2)c1=S (stereo not drawn),i,1,105,
Cc1ccc(C2=N/C(=C/c3ccsc3)C(=O)O2)s1,i,1.1,101,
Cn1cc(Br)cc1C(=O)OCN1C(=O)c2ccccc2C1=O,i,0.93,103,
C=C(N)N[C@@H](CCC(=O)O)C(=O)O,i,.,.,total CFTR fold 25 µM=1.1;total CFTR viability 25 µM=99
CCOC(=O)c1c(C)[nH]c(C)c1C(=O)CSc1nnnn1C1CC1,i,1.1,92,
O=C(CSc1nnnn1C1CC1)NC(c1cccs1)C1CCCC1 (stereo not drawn),i,0.94,90,
CC(C)C(Sc1nccn1C)C(=O)NC(N)=O (stereo not drawn),i,1,98,
CC1CCN(S(=O)(=O)NCCCSc2ccccc2)CC1,i,1,80,
Cc1cc(N2CCN(C(C)c3nc4ccccc4s3)CC2)n2ncnc2n1 (stereo not drawn),i,0.95,83,
S=c1n(-c2ccccc2)cnn1CN1CCN(Cc2ccc3c(c2)OCO3)CC1,i,1,99,

# Further results.
SMILES,total CFTR,total CFTR fold 10 ug/mL,total CFTR viability 10 ug/mL,others
CCCc1noc2nc(C3CC3)cc(C(=O)O)c12,i,1.1,90,
C=CCOc1ccccc1/C=C(/C#N)c1nc(N)nc(N(C)C)n1,i,1.1,85,
CC1CN(S(=O)(=O)N(C)Cc2ccccc2Br)CC(C)O1 (stereo not drawn),i,1,110,
CN(CCC#N)c1ccc(CNCC2(c3ccccc3)CC2)cc1,i,1.1,101,
O=C1CC2(CCCCC2)C(=O)N1CC(O)c1ccc(Cl)cc1 (stereo not drawn),i,1,89,
O=C1C(=O)N(CN2CCN(Cc3ccc4c(c3)OCO4)CC2)C(=O)N1CCc1cccs1,i,0.93,107,
FC(F)(F)C1CCCN(Cn2nc(-c3cccs3)n(C3CC3)c2=S)C1 (stereo not drawn),i,1.1,100,
CC1CCN(c2nnc(SC(C(=O)NC(N)=O)C(C)C)n2C2CC2)CC1 (stereo not drawn),i,0.92,104,
C=CCNc1nnc(SCc2ccc(C#N)cc2)s1,i,1,85,
CC(C)c1ccccc1-n1ccnc1SC1CCOC1=O (stereo not drawn),i,0.92,88,
CN(Cc1ccc2c(c1)OCCO2)S(=O)(=O)c1c(Cl)cc(Br)cc1Cl,i,0.98,69,
Clc1cc2c(c(CSc3nc4ccccc4s3)c1)OCOC2,i,1,96,
NCCOC1CCCC1,i,1,93,
CCC(CC)N(C1CC1)S(=O)(=O)c1cc(OC)c(OC)cc1Br,i,0.97,93,
CC1(C)Cc2cccc(OC3CCNCC3)c2O1,i,0.97,87,
Nc1nc(CN2CCN(S(=O)(=O)c3ccc4c(c3)CCC4)CC2)nc2ccccc12,i,1.1,94,
CC(C)(CNC(=O)CCN1C(=O)C2CCCCC2C1=O)N1CCOCC1 (stereo not drawn),i,1,95,
CCCCC(Sc1nncs1)C(=O)Nc1cc(C)on1 (stereo not drawn),i,1,89,
C=CCn1c(SCC(=O)O)nc2c1c(=O)n(C)c(=O)n2C,i,1.1,111,
CC[C@@H]1OC(=O)C[C@H](O)[C@@H](C)[C@@H](O[C@@H]2O[C@H](C)[C@@H](O[C@H]3C[C@@](C)(O)[C@@H](O)[C@H](C)O3)[C@H](N(C)C)[C@H]2O)[C@@H](C=O)C[C@@H](C)C(=O)/C=C/C(C)=C\[C@@H]1CO[C@H]1O[C@@H](C)[C@H](O)[C@H](OC)[C@@H]1OC,i,.,.,total CFTR fold 25 µM=1;total CFTR viability 25 µM=82
CN(Cn1nc(C2CC2)n(C2CC2)c1=S)C(c1ccccc1)c1ccccc1,i,0.92,108,
COc1ccc(Br)cc1S(=O)(=O)Nc1ccc(OC)c(S(=O)(=O)N(C)C)c1,i,0.99,90,
CCOC(=O)c1cc(CC)sc1NC(=O)CC1(C(=O)O)CCCCC1,i,1,84,
O=C1CN(S(=O)(=O)c2ccc3c(c2)CCC(=O)N3)CCN1,i,1,99,

# Of the compounds above, eight contain a COOH group:
SMILES,total CFTR,total CFTR fold 10 ug/mL,total CFTR viability 10 ug/mL,others
C[C@@H]1C/C=C/C=C/C=C/C=C/C(O[C@@H]2O[C@H](C)[C@@H](O)[C@H](N)[C@@H]2O)C[C@@H]2O[C@](O)(C[C@@H](O)CC3OC3/C=C/C(=O)O1)C[C@H](O)[C@H]2C(=O)O (stereo partly drawn),i,.,.,total CFTR fold 25 µM=0.92;total CFTR viability 25 µM=66
O=C(O)c1cc2c(cc1O)OCO2,i,1,102,
O=C(O)C1CCCN(C(=O)N2CCNCC2)C1 (stereo not drawn),i,1.1,103,
O=C(O)CCc1nc(-c2ccccc2)c(-c2ccccc2)o1,i,.,.,total CFTR fold 25 µM=1.1;total CFTR viability 25 µM=84
C=C(N)N[C@@H](CCC(=O)O)C(=O)O,i,.,.,total CFTR fold 25 µM=1.1;total CFTR viability 25 µM=99
CCCc1noc2nc(C3CC3)cc(C(=O)O)c12,i,1.1,90,
C=CCn1c(SCC(=O)O)nc2c1c(=O)n(C)c(=O)n2C,i,1.1,111,
CCOC(=O)c1cc(CC)sc1NC(=O)CC1(C(=O)O)CCCCC1,i,1,84,

# Remaining list, next part:
SMILES,total CFTR,total CFTR fold 10 ug/mL,total CFTR viability 10 ug/mL,others
O=C1c2ccccc2NC(c2cccc(O)c2)N1c1ccc2c(c1)OCO2 (stereo not drawn),i,0.87,88,
c1ccc2c(c1)OCC(CNc1nc(CN3CCOCC3)nc3sc4c(c13)CCC4)O2 (stereo not drawn),i,0.93,88,
COC(=O)Nc1nc2ccc(C(=O)c3ccccc3)cc2[nH]1,i,.,.,total CFTR fold 25 µM=0.73&0.68;total CFTR viability 25 µM=60&76
O=C(NCCc1cccs1)C1CC=CCC1 (stereo not drawn),i,0.86,95,
CCN(CC(=O)NC(C)(C)C)CN1C(=O)NC2(CCC(C)CC2)C1=O (stereo not drawn),i,1.1,103,
Cc1cc(C(=O)CN2C(=O)NC3(CCCCC3)C2=O)c(C)n1CC1CCCO1 (stereo not drawn),i,1,89,
Cn1cc(-c2nc(C(=O)N3CCN(S(=O)(=O)N4CCCCCC4)CC3)cs2)cn1,i,0.98,105,
CCN1C(=O)C(=O)N(CC#N)C1=O,i,0.99,105,
CCn1nnn(-c2cccs2)c1=O,i,1.2,98,
C[n+]1cc2c3c(ccc2c2ccc4cc5c(cc4c21)OCO5)OCO3,i,.,.,total CFTR fold 25 µM=0.63;total CFTR viability 25 µM=3
Cc1cc2oc(=O)cc(COC(=O)c3cc4c(s3)CCC(C)C4)c2cc1C (stereo not drawn),i,0.97,115,
N#Cc1ccc(S(=O)(=O)N2CCC(c3nnc4n3CCC4)CC2)cc1,i,0.9,83,
O=C1NC2(CCCC2)C(=O)N1CN1CCN(C(c2ccccc2)c2ccccc2)CC1,i,1,87,
CC12CCC(=O)N1C(C(=O)Nc1ccc3[nH]c(=O)[nH]c3c1)CS2 (stereo not drawn),i,1,98,
N#Cc1ncn(Cc2csc(-c3ccsc3)n2)n1,i,1,97,
O=c1[nH]cnc2c1ncn2C1O[C@H](CO)[C@@H](O)[C@H]1O (stereo partly drawn),i,.,.,total CFTR fold 25 µM=1.1;total CFTR viability 25 µM=104

# Four entries from above, ordered by formula weight, descending:
SMILES,total CFTR,total CFTR fold 10 ug/mL,total CFTR viability 10 ug/mL,others
Cc1cc2oc(=O)cc(COC(=O)c3cc4c(s3)CCC(C)C4)c2cc1C (stereo not drawn),i,0.97,115,
N#Cc1ccc(S(=O)(=O)N2CCC(c3nnc4n3CCC4)CC2)cc1,i,0.9,83,
CC12CCC(=O)N1C(C(=O)Nc1ccc3[nH]c(=O)[nH]c3c1)CS2 (stereo not drawn),i,1,98,
N#Cc1ncn(Cc2csc(-c3ccsc3)n2)n1,i,1,97,
